Source: PubChem BioAssay
KCNQ2 inh: KCNQ2 channel blockers in CHO-K1 cells – cell-based, FluxOR thallium flux, B-score, primary screen (AID 2156); 20 min; stronger effect = lower value; only compounds with negative scores are shown here; some inactives read as strong as hits; actives 1.1% (n = 310,000); B-score at 10 µM;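 active means fluorescence ratio B-score at most minus 3 library SDs, with starting brightness B-score within 2 library SDs, cut at about -5.5 in these data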
Target sequence (O88943 whole entry, looked up): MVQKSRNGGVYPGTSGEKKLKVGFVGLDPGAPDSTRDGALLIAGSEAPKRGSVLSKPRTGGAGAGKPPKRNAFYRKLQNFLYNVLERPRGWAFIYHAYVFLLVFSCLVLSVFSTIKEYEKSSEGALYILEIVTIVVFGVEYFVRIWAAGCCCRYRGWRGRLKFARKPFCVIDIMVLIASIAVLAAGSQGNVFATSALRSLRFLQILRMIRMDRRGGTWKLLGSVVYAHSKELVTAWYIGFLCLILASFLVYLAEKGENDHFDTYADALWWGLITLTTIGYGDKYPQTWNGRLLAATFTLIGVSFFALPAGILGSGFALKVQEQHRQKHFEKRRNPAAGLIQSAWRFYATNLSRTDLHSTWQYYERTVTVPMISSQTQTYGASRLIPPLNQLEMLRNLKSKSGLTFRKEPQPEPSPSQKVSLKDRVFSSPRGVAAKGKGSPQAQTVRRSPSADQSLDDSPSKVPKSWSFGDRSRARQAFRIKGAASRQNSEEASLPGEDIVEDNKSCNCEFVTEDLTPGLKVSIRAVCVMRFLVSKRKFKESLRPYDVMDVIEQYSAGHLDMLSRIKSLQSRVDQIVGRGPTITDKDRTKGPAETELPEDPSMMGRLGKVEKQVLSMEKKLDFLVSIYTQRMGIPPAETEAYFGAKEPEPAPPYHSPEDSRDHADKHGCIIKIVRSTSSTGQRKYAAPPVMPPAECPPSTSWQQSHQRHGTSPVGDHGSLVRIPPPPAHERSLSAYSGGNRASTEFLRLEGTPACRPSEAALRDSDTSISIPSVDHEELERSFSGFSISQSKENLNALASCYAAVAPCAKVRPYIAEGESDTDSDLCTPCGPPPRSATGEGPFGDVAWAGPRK
KCNQ2 inh baseline: also measured in KCNQ2 inh; calls as there; B-score; measured here: initial fluorescence intensity artifact check;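 brightness before thallium and not channel activity; 0 = typical well and far values either way flag optical interference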
Active calls of the source: *; i = inactive. These rows are one share of the data (hit frequency here may not be typical).

KCNQ2 inh	KCNQ2 inh baseline	smiles
i	1.2	CCC(=O)Nc1nnc(SCC(=O)NCc2ccc3c(c2)OCO3)s1
i	0.11	CC1(c2ccc3c(c2)OCO3)NC(=O)N(CC(=O)Nc2ccc(N3CCOCC3)cc2)C1=O (stereo unspecified)
i	-0.23	CC(C)Cn1c(/C=C/c2ccco2)nc2ccccc21
i	0.42	CCN1CCN(c2ccc(S(=O)(=O)N3CCCCC3)cc2NC(=O)c2ccc([N+](=O)[O-])o2)CC1
i	-0.66	COc1ccc(NC(=O)CCC(=O)c2cccs2)c(OC)c1
i	0.24	CCCCCOC(=O)Nc1nnc(CCC)s1
i	0.45	COc1ccccc1C(=O)Nc1cccc(S(=O)(=O)N2CCCC2)c1
i	-0.11	O=Cc1c(C(=O)O)n(CC(=O)O)c2ccccc12
i	0.25	CCN(C(=O)CSc1cc(-c2ccccc2)c2ccc(OC)cc2n1)C1CCS(=O)(=O)C1 (stereo unspecified)
i	0.07	COc1ccccc1N(CC(=O)NCCc1ccccc1)C(=O)CCC(=O)Nc1ccccn1
i	-1.3	COc1cccc2c1N1C(=O)c3c(C(=O)O)cccc3C1CC2(C)C (stereo unspecified)
i	0.89	CCOc1ccc(NC(C)=O)cc1[N+](=O)[O-]
i	-0.08	CCOC(=O)C(C)Sc1nnc(Cn2c(=O)sc3ccccc32)n1-c1ccccc1 (stereo unspecified)
i	0.63	Cc1cccc2nc(-c3cccnc3)c(NCCC(C)C)n12
i	1.2	O=C(Nc1cccnc1Oc1ncnc2cc(Cl)ccc12)c1ccc(F)cc1
i	-0.15	Cc1nn(C)c(C)c1S(=O)(=O)NC1CCCc2ccccc21 (stereo unspecified)
-6.1*	1.2*	CCOc1ccccc1NC(=O)c1cc(-c2cc(OC)c(OC)c(OC)c2)nc2ccccc12
i	-1.1	CC1CC(N(C(=O)c2ccc(Cl)cc2)c2ccccc2)c2ccccc2N1C(=O)c1ccco1 (stereo unspecified)
i	1.1	Cc1ccc2c(c1)C1CCCC3C1N2CC(=O)N3Cc1ccccc1 (stereo unspecified)
i	0.29	CCCn1nc(NS(=O)(=O)c2ccccc2)c2cc3cc(C)ccc3nc21
i	0.95	COc1ccc(CNc2oc(COc3ccccc3)nc2C#N)cc1
i	0.03	Cc1nn(C)cc1C(C)NC(=O)c1cc(COc2c(F)cccc2F)on1 (stereo unspecified)
i	-0.44	COc1ccccc1C(=O)NC(=O)COC(=O)c1cccc(OC(F)F)c1
i	0.45	CN(C)CCCN(C(=O)c1ccc(S(=O)(=O)N(C)Cc2ccccc2)cc1)c1nc2cc3c(cc2s1)OCO3
i	-2.2	CCOC(=O)Cn1c(=O)n(C2CCCC2)c(=O)c2ccccc21
i	-0.49	CCC(CO)Nc1ccc(-c2nn(C)c(=O)c3ccccc23)cc1[N+](=O)[O-] (stereo unspecified)
i	-1.2	O=C(Nc1ccc(CN2CCOCC2)cc1)c1cc(Br)ccc1Cl
i	0.5	O=C(CSc1n[nH]c(=O)[nH]c1=O)c1ccc([N+](=O)[O-])cc1
i	-0.24	CN1CCC(N(C)S(=O)(=O)c2ccc(Cl)cc2)CC1
i	0.31	CC(=O)N1CCOc2ccc(S(=O)(=O)N3CCN(c4cc(C)ccc4C)CC3)cc21
i	0.31	CCN(CC)S(=O)(=O)c1ccc(C)c(NC(=O)CNCCN(C(C)C)C(C)C)c1
i	-0.89	CCOc1ccc(Br)cc1C(=O)N/N=C/c1cccnc1
i	0.1	O=C(Nc1cccnc1)c1cc(-c2ccc(Br)cc2)on1
i	0.28	Cc1ccc(N(C(=O)CC2NC(=O)NC2=O)C2(C(=O)NC3CCCC3)CCCCC2)cc1 (stereo unspecified)
i	0.03	COc1ccc(CNS(=O)(=O)c2c(C)[nH]c(C)c2C(=O)N2CCCC2)cc1
i	1.3	Cc1ccc(-c2nc(N/N=C/c3cccnc3)c3ccccc3n2)cc1
i	0.91	CCOC(=O)c1c(C)c(C(=O)Nc2cc(OC)ccc2OC)c(C)n1CC
i	0.39	O=C1CSC(=S)N1/N=C/C=C/c1ccccc1
i	-0.01	CC(C)N1CCN(S(=O)(=O)c2ccc3ccccc3c2)CC1
i	-2.7	CSc1ncccc1C(=O)Nc1nc2ccc(F)cc2s1
i	0.02	O=C1CC(c2ccco2)Sc2ccccc2N1 (stereo unspecified)
i	0.92	O=C(CCNS(=O)(=O)c1cccs1)N1CCN(c2ccc(F)cc2)CC1
i	-1.5	COc1ccc(-n2c(=O)c3c4c(sc3n(CC(=O)NCc3ccco3)c2=O)CCC4)c(OC)c1
i	2.4	CCOc1ccc2nc(SC3CC(=O)N(c4ccc(C)cc4)C3=O)sc2c1 (stereo unspecified)
i	-0.91	CCOC(=O)CSc1n[nH]c(NC(C)=O)n1
i	3.5	COc1ccc(N=Cc2cc3c(cc2O)OC(N)=C(C#N)C3c2ccccc2)cc1 (stereo unspecified)
i	-0.06	O=C(CCC(=O)Nc1nnc(C2CCCCC2)s1)NCc1ccccc1
i	3.6	COc1ccc(OCCn2cc(/C(N)=N/O)c3ccccc32)cc1
i	-0.41	COCc1ccc(C(=O)NC(C)c2cnn(-c3ccccc3C)c2C)o1 (stereo unspecified)
i	-0.89	Cc1nn(-c2ccccc2)c(C)c1/C=N/NC(=O)CSc1nnc(SCc2cccc3ccccc23)s1

Going on with the list.
KCNQ2 inh	KCNQ2 inh baseline	smiles
i	0.05	O=C(Nc1cccnc1Cl)c1cccnc1Cl
i	-0.59	CC(C)Cc1ccc(S(=O)(=O)Nc2cccnc2)cc1
i	1.1	COc1ccc(OCCNC(=O)C(Cc2c[nH]c3ccccc23)NC(C)=O)cc1 (stereo unspecified)
i	1	Cc1nn(-c2ccccc2)c2c1C(c1ccc(O)c(O)c1)N1C(=N2)C(Nc2ccccc2)=Nc2ccccc21 (stereo unspecified)
i	-0.8	Cn1nnnc1SC(C(=O)Nc1cccc(C(F)(F)F)c1)c1ccccc1 (stereo unspecified)
i	-0.92	COc1ccc(/C=N/N2CCOCC2)cc1COc1ccc(Cl)cc1
i	-1.5	O=C(CCS(=O)(=O)c1ccc(Cl)cc1)Nc1ccccc1Br
i	0.84	CCC(C)C(=O)Nc1ccc(S(=O)(=O)Nc2nccs2)cc1 (stereo unspecified)
i	-1.6	O=S(=O)(c1ccccc1)c1cc(O)ccc1O
i	0.27	CCN(CC)c1ccc(/C=C2\C(=O)N(c3nnc(C)c(=O)[nH]3)N=C2C)cc1
i	1.1	CCOc1cc(NC(=S)NCCCN(C)C)c(OCC)cc1NC(=O)c1cccs1
i	-1.1	CCOc1ccc(C(=O)/C=C/Nc2ccc(S(=O)(=O)Nc3cc(C)nc(C)n3)cc2)cc1
i	-1.8	CC(C)(C)C1=CC(=O)C(N2CCOCC2)=CC1=O
i	0.97	COc1ccc(N2CC(C)Cn3c2nc2c3c(=O)n(CCc3ccccc3)c(=O)n2C)cc1 (stereo unspecified)
i	0.14	CC(C)C(C(=O)NCC1CCCO1)N(C(=O)CNS(=O)(=O)c1ccccc1)C1CCCCC1 (stereo unspecified)
i	1.8	N#CCSc1ccsc1C(=O)Nc1ccc(F)cc1
i	0.02	COc1cccc(OCC(=O)N2CCCc3ccccc32)c1
i	0.18	c1ccn2cc(-c3ccc4c(c3)OCO4)cc2c1
i	0.57	Cc1cc(S(=O)(=O)N2CCCC(C)C2)ccc1-n1cnnn1 (stereo unspecified)
i	1.3	O=C(N/N=C\c1ccncc1)c1ccccc1O
i	-0.05	Cc1sc2ncn(CC(=O)NCCCC(=O)N3CCC(C(N)=O)CC3)c(=O)c2c1C
i	2.1	CNc1ccn(C2CCCO2)c(=O)n1 (stereo unspecified)
i	0.57	Cc1cc(Cl)c(S(=O)(=O)NC(C)C)cc1OCC(N)=O
i	-0.04	CC1(C)C2CCC1(C)C(OC(=O)CCn1ccnc1)C2 (stereo unspecified)
i	-0.03	N/C(=N\OC(=O)CCn1cccc(C(F)(F)F)c1=O)c1ccc(OC(F)(F)F)cc1

Single records (already shown):
N#CCSc1ccsc1C(=O)Nc1ccc(F)cc1 is entered as KCNQ2 inh = i; KCNQ2 inh baseline = 1.8
Cc1sc2ncn(CC(=O)NCCCC(=O)N3CCC(C(N)=O)CC3)c(=O)c2c1C is entered as KCNQ2 inh = i; KCNQ2 inh baseline = -0.05
N/C(=N\OC(=O)CCn1cccc(C(F)(F)F)c1=O)c1ccc(OC(F)(F)F)cc1 is entered as KCNQ2 inh = i; KCNQ2 inh baseline = -0.03

Reformatted as a markdown table: 7 of the compounds above.
| molecule | KCNQ2 inh | KCNQ2 inh baseline |
| --- | --- | --- |
| CCC(C)C(=O)Nc1ccc(S(=O)(=O)Nc2nccs2)cc1 (stereo unspecified) | i | 0.84 |
| CC(C)(C)C1=CC(=O)C(N2CCOCC2)=CC1=O | i | -1.8 |
| O=C(CCS(=O)(=O)c1ccc(Cl)cc1)Nc1ccccc1Br | i | -1.5 |
| COc1cccc(OCC(=O)N2CCCc3ccccc32)c1 | i | 0.02 |
| N#CCSc1ccsc1C(=O)Nc1ccc(F)cc1 | i | 1.8 |
| COc1ccc(N2CC(C)Cn3c2nc2c3c(=O)n(CCc3ccccc3)c(=O)n2C)cc1 (stereo unspecified) | i | 0.97 |
| O=S(=O)(c1ccccc1)c1cc(O)ccc1O | i | -1.6 |

Additional entries:
KCNQ2 inh	KCNQ2 inh baseline	smiles
i	-0.76	COc1ccc(CCN2C(=O)c3[nH]nc(-c4ccccc4O)c3C2c2cccc(O)c2)cc1OC (stereo unspecified)
-6*	0.07*	Cc1ccc(C)c(C(=O)CCC(=O)NCc2ccc(Cl)cc2)c1
i	0.67	Cc1cc(C)nc(OC(C(=O)O)C(OCCc2ccccc2)(c2ccccc2)c2ccccc2)n1 (stereo unspecified)
i	-0.46	CCc1ccc(C(=O)COC(=O)CNC(=O)CNS(=O)(=O)c2ccccc2)cc1
i	0.68	CN(C)CCCNC(=S)N1CCN(c2nc(-c3ccccc3)cs2)CC1
i	-0.08	O=C(N/N=C/C=C/c1ccc([N+](=O)[O-])cc1)c1cccs1
i	2.8	O=C(N/N=C/c1[nH]c2ccccc2c1Cl)c1cccc(Br)c1
i	-0.51	Cc1ccc(Nc2nc(C(=O)NCCCN3CCOCC3)cs2)cc1
-5.9*	-1.6*	O=S(=O)(c1cccc(F)c1)N1CCc2sccc2C1c1ccc(OC(F)(F)F)cc1 (stereo unspecified)
i	0.98	CCOC(=O)/C(=N/Nc1ccccc1)c1csc(Nc2ccccc2)n1
i	0.95	C=CCN(CC=C)S(=O)(=O)c1ccc(NC(=S)NC(=O)/C=C/c2ccccc2)cc1
i	1	CCc1ccc(NC(=O)Cn2cccc2)cc1
i	1.2	O=C(OC1CCOC1=O)c1cncc(Br)c1 (stereo unspecified)
i	0.09	Cc1cc(C)c(S(=O)(=O)NCCCn2ccnc2)cc1C
i	-2	CCOc1ccc(OCCC(=O)N(CC(=O)Nc2ccccc2C(F)(F)F)Cc2ccco2)cc1
i	-1.3	COc1ccccc1NC(=S)N(Cc1ccco1)Cc1cc2cc(C)cc(C)c2[nH]c1=O
i	0.19	Oc1c(Cl)cc(Cl)cc1/C=C/c1ccc2cccc(O)c2n1
i	0.35	CNC(=S)NNC(=O)CSCc1c(Cl)cccc1Cl
i	0.16	Cc1cc(C(=O)NNc2c(Cl)cccc2Cl)n(C(C)(C)C)n1
i	0.4	NC(=O)c1cc(N2C(=O)C=CC2=O)ccc1Cl
i	-0.05	C=CCNC(=S)NNC(=O)c1cc(-c2cccnc2)nc2ccccc12
i	-0.03	CCOC(=O)C1=C(Cn2cnc3ccccc32)NC(=O)NC1c1ccc(Cl)cc1 (stereo unspecified)
i	-1.6	CSc1sc(-c2ccnc(SCC(=O)C(C)(C)C)n2)c2c1C(=O)CC(C)(C)C2
i	-0.11	CC1=CN2C(=N)/C(=C/c3cn(CCCOc4ccccc4C)c4ccccc34)C(=O)N=C2S1
i	0.15	CC(C)c1ccc(NC2CCCN(C(=O)CCN3CCCC3=O)C2)cc1 (stereo unspecified)
i	-1.2	S=C(NCc1ccccc1)N1CCn2cccc2C1c1cccnc1 (stereo unspecified)
i	-1.4	CC(C)c1cc(C(F)(F)F)n2nc(C(=O)Nc3ccc(-n4cnnn4)cc3)cc2n1
i	-0.65	O=c1[nH]cccc1-c1nc2ccccc2n1Cc1ccc(Cl)cc1
i	-1.1	CCc1n[nH]c(=S)n1/N=C/c1c[nH]c2ccc(Br)cc12
i	3.6	N#Cc1c(-c2ccco2)cc(-c2ccccc2)[nH]c1=O
i	2	CCOC(=O)c1ccc(NC(=O)COc2cc(=O)n(CC)c3ccccc23)cc1
i	-0.19	Cc1ccc(S(=O)(=O)C2(C(=O)NC3CCCCC3C)CC2)cc1 (stereo unspecified)
i	0.29	COCC1CCCCN1C(=O)c1ccc2oc(CCCc3ccccc3)nc2c1 (stereo unspecified)
i	-0.16	COc1ccc(O)c(/C=N/c2nc3ccccc3n2C)c1
i	0.78	Cc1cc(Cn2ccnc2)c(C)cc1Cn1ccnc1
i	-2.2	O=C(C1CCCN(S(=O)(=O)c2cnc[nH]2)C1)N(CCc1ccccc1)Cc1ccccc1 (stereo unspecified)
i	-0.13	CCc1cc(C(=O)N=Nc2c(O)[nH]c3ccc([N+](=O)[O-])cc23)c2ccccc2n1
i	-0.09	Cc1[nH]c2ccccc2c1/C=N/Nc1nc(N2CCCCC2)nc(N2CCCCC2)n1
i	-0.16	CCOc1ccc(NC(=O)C(c2ccccn2)N(C(=O)CCl)c2ccc(F)cc2)cc1 (stereo unspecified)
i	1.7	CCn1c(CNC(=O)COc2ccc(C(C)C)cc2)nnc1SCC(=O)Nc1cc(F)ccc1C
i	-0.45	CC(=O)Nc1cccc(Oc2nc(-c3ccccn3)nc3ccccc23)c1
